Vaccinia Venus – qHTS for Stage-Specific Inhibitors of Vaccinia Orthopoxvirus: Venus Reporter Primary qHTS. 330,000 tested, 0.46% active. Vaccinia virus Venus reporter expression, fluorescence. Potency, µM (series often up to 36.5 µM), for inactives: top-dose activity change, negative = inhibition, most hits filed as inhibitors; active means well fitted inhibition curve with a large enough effect; inconclusive means small, poorly fitted or top-dose-only effect; inactive means no such curve, though single readings can be large or run the other way; tested in A549 cells; further: nearly all actives have a fitted effect of over 30% in size; inactives centre near -10
VACV mCherry inh – qHTS for Stage-Specific Inhibitors of Vaccinia Orthopoxvirus: mCherry Reporter Primary qHTS; Vaccinia virus mCherry reporter infection, fluorescence; about a quarter of the inactives have no number; Potency, µM (top dose mostly 36.5 µM), without a hit: top-dose activity change, negative = inhibition, actives largely listed as inhibitors; 310,000 tested, 0.63% active; active = well fitted inhibition curve with a large enough effect; inconclusive = small, poorly fitted or top-dose-only effect; inactive = no such curve, though single readings can be large or run the other way; tested in A549 cells; further: nearly all actives have a fitted effect of over 35% in size; inactives centre near -10
Active calls of the source: *; i = inactive; u = inconclusive; x = not tested or not shown; & = joins results of further samples; [ ] = another dose, or the depositor's remark. On the % scale 0 is the no-effect control and ±100 the full control effect; potency means the concentration at half of the fitted maximal effect. Rows are unselected (roughly 0.88% active in at least one column).

compound,Vaccinia Venus,VACV mCherry inh
Cc1nn2c(=O)cc(COC(=O)c3ccc(NC(=O)COc4ccc(Cl)cc4)cc3)nc2s1,-23%,-4%
O=C(Nc1ccccc1Cl)C1CCCN(c2ncnc3c2nc2n3CCCCC2)C1 (stereo not drawn),-25%,i
CC1(C)O[C@@H](CC(=O)O)[C@]23CO[C@H](C(=O)[C@]4(C)C2CC[C@@]2(C)[C@H](c5ccoc5)OC(=O)C5O[C@]524)[C@@H]13 (stereo partly drawn),-2%,i
CCc1ccc(OC2(C)CCN(Cc3ccccc3OC(F)F)C2)cc1 (stereo not drawn),-9%,i
COc1ccc(OCC(=O)N/N=C/C=C/c2ccccc2)cc1,-18%,-1%
COc1ccccc1C(=O)NCC(=O)OCc1ccc(Br)cc1,5%,-9%
O=C1C=C(c2ccc(OC(F)(F)F)cc2)C[C@@H](c2ccc(F)cc2)C1,-22%,-20%
Cc1noc(C)c1COc1ccccc1C(=O)NC(C)c1ccc(F)cc1 (stereo not drawn),-20%,-4%
CN(C)c1ccc(CNC(=O)c2cc(S(=O)(=O)N3CCOCC3)cn2C)cc1,-4%,i
O=C(c1ccc2c(c1)OCCO2)N(Cc1cccnc1)c1nc2c(Cl)cccc2s1,-10%[7.34 µM],-11%[7.34 µM]
Cc1ccc(N(Cc2ccccc2)C(=O)c2cc(S(=O)(=O)N3CCOCC3)ccc2F)cc1,-10%,-27%
COc1ccc2sc(-c3ccccc3OC)c(C#CCCO)c2c1,-14%,i
NC(=O)OCCCc1ccccc1,-10%,-2%
COc1ccc(NC(=O)Nc2ccncc2)c(OC)c1,4%,9%
CNC(=O)NC(=O)COC(=O)c1cccc(S(=O)(=O)N2CC3(C)CC2CC(C)(C)C3)c1 (stereo not drawn),-2%,-19%
O=CN1CCN(C(=O)Cc2ccc(Cl)cc2)CC1,-9%,i
O=C(Cn1nnc2ccccc2c1=O)NC1CCCc2ccccc21 (stereo not drawn),2%,-10%
COCCCNC(=O)CCCN1C(=O)CCn2nc(-c3cccn3C)cc21,3%,-6%
C=CCN(c1ccccc1)S(=O)(=O)c1cccc(C(=O)O)c1,1%,-10%
Cc1ccc2c(c1)-c1c(cnc3cc(-c4ccccc4)nn13)CO2,-3%,0%
CN(c1ccc(C(=O)NCc2ccncc2)cc1)S(C)(=O)=O,-20%,x
CCCCOc1ccccc1C(=O)N(Cc1sccc1C)C1CCS(=O)(=O)C1 (stereo not drawn),-10%,-1%
Oc1ccc(-c2nc3ncccn3c2Nc2ccc3c(c2)OCCO3)cc1,-12%,x
COC(=O)[C@@]1(Cc2ccc(OC)cc2)[C@H]2c3cc(C(=O)N(C)C)n(Cc4ccc(OC(F)(F)F)cc4)c3C[C@H]2CN1C(=O)c1ccccc1,u,-21%
O=C(CNc1ccc(F)cc1)N/N=C1\CCc2ccccc21,-3%,-10%
COc1cccc(-c2ccc3nnc(SCC(=O)N4CCOCC4)n3n2)c1,-26%,-13%
C=C[C@H]1C(O[C@@H]2O[C@H](CO)[C@@H](O)[C@H](O)[C@H]2O)OC=C2C(=O)N3CCc4cc(OC)c(O)cc4[C@H]3C[C@H]21 (stereo partly drawn),1%,-14%
Cc1nn(CC(=O)NC2CC2)c(=O)c2cc3cc(F)ccc3n12,-8%,-4%
CC(=O)c1c(C(C)=O)c(C)n(-c2ccc3ncccc3c2)c1C,-2%,-15%
COCC(C)n1c(C)cc(C(=O)CSc2nnc(Nc3ccccc3F)s2)c1C (stereo not drawn),-21%,-19%
Nc1nnc(SCC(=O)c2cccc([N+](=O)[O-])c2)s1,2%,5%
CCC(CO)Oc1cc(NC(=O)c2ccccc2Cl)c2ncn(C(C)C)c2c1 (stereo not drawn),-8%,i
O=C(CSc1nccc(=O)[nH]1)Nc1cc(C(F)(F)F)ccc1N1CCOCC1,-8%,-8%
Cn1c(=O)n(C)c2cc(N3CCOCC3)c(NS(=O)(=O)c3ccc(F)cc3)cc21,6%,-3%
CCOC(=O)C1=C(C)N(C)C2(C)CC1c1ccccc1O2 (stereo not drawn),-5%,x
COc1cc(OC)cc(-c2c(-c3cccs3)c3cc(-c4ccc(OC)c(F)c4)ccc3n2C)c1,-4%,i
COc1ccc(N2CCN(C(=O)CCN3C(=S)NC(C)(C)CC3C)CC2)cc1 (stereo not drawn),-9%,-6%
Cc1ccc(C)c(S(=O)(=O)N2CCN(C(=O)c3cccn3C)CC2)c1,-24%,-3%
O=C1NCCN(Cc2ccc(F)cc2)C1=O,3%,0%
Cc1cc(=O)c2ccc(C(F)(F)F)cc2[nH]1,-7%[7.34 µM],5%[7.34 µM]
COc1cc(C(=O)OCc2cc(=O)n3nc(C(C)C)sc3n2)cc(OC)c1OC,3%,9%
CC(C)(C)OC(=O)NCCCC[C@@H](C(=O)N1CCN(C(=O)OC(C)(C)C)CC1)n1cc(C(CO)NC(=O)OC(C)(C)C)nn1 (stereo partly drawn),-11%,-14%
O=C(OCC(=O)N1CCCC1)c1ccccc1OCc1ccccc1,-11%,x
Cc1cccc(NC(=S)N/N=C/c2c[nH]c3ccccc23)c1,u,u
COc1ccc(C(=O)COC(=O)CNC(=O)C2CCCCC2)c(OC)c1,-8%,x
COc1ccc(S(=O)(=O)N(CC(C)C)CC(C)C)c2cccnc12,-22%,-23%
COc1ccc(C(C)=O)cc1CSc1nnc(Nc2ccc(C)cc2)s1,-26%,u
CC(OC(=O)Cc1cccc(C(F)(F)F)c1)C(=O)Nc1ccc(Cl)cn1 (stereo not drawn),-6%,-7%
CCCCc1nnc(SCc2cc(=O)c3cc(F)ccc3[nH]2)n1C,-20%,0%
Cc1cccc(N2CC(C(=O)Nc3nc4ccc(S(C)(=O)=O)cc4s3)CC2=O)c1C (stereo not drawn),-2%,-1%
CCOc1ccc(C2=CS/C(=C(\C#N)c3nnc4n3CCCCC4)N2CC)cc1,-22%,u
NC(Cc1ccc(Cl)cc1)c1csc(Nc2cc(Oc3ccccc3)ncn2)n1 (stereo not drawn),u,-21%
C(=N\Nc1nnnn1-c1ccccc1)/c1ccncc1,-24%,-20%
Cc1cccc(N2C(=O)C(Cl)=C(Nc3c(C)n(C)n(-c4ccccc4)c3=O)C2=O)c1C,-7%,i
CC(C)(C)NC(=O)C(c1ccnc2ccccc12)n1c(=O)c(-c2cc3ccccc3[nH]2)nc2ccccc21 (stereo not drawn),u,u
CCC(=O)n1nc(-c2cccnc2)nc1NCc1cccs1,-8%,i
CCN(CC)S(=O)(=O)c1cccc(C(=O)NC2=NCCS2)c1,-9%,6%
CC1(C)CC(=O)C2=C(C1)NC(SCC(=O)Nc1ccccc1)=C(C#N)C2c1ccco1 (stereo not drawn),-11%,-13%
O=C(CCCCn1c(=O)c2ccccc2n(Cc2ccccc2F)c1=O)NC1CCN(Cc2ccccc2)CC1,2%,-6%
O=C1NC[C@H](CCCCN2C[C@H](Cc3ccc(O)cc3)N(CC3CCCCC3)C(=O)C2=O)N(CCc2ccc(O)cc2)C1=O,4%,2%

Remaining list, next part:
compound,Vaccinia Venus,VACV mCherry inh
C/C(=N\NC(=O)c1ccc(CN2CCc3ccccc3C2)cc1)c1ccccc1O,-17%,u
Cc1oc(CC(C)C)cc1C(=O)Nc1cccc2ccccc12,-15%,u
Cc1ccc(Cn2c(=O)n(CCc3ccccc3)c(=O)c3c(C)c(C)sc32)cc1,-1%,-12%
CCOC(=O)c1cnc2c(OC)cccc2c1Nc1ccc2c(c1)OCCO2,-23%,-12%
O=C1CC(N2CCN(c3ccccn3)CC2)C(=O)N1c1ccc(Cl)cc1 (stereo not drawn),-13%,-1%
COc1cc(CN(C(=S)NCC(=O)O)C2CCCC2)cc(OC)c1OC,-12%,i
Cc1c2n(c3ccccc13)CCC2=O,-12%,i
COc1ccccc1CNC(=O)COC(=O)c1ccc(C(=O)c2ccccc2)cc1,-7%,-14%
CC(=O)Nc1ccc2oc(C)nc2c1,4%,-11%
COc1ccc(/C=C(/NC(=O)c2ccco2)C(=O)N2CCCCCC2)cc1OC,-8%,-9%
Cc1cccc(OCC(=O)Nc2cccc3cccnc23)c1C,0%,-1%
O=C(CC1C(=O)NCCN1CC1CCCCC1)NCc1cccc(F)c1F (stereo not drawn),1%,-10%
Cc1ccc(C(=O)c2oc3ccccc3c2NC(=O)C(C)Oc2ccccc2Cl)cc1 (stereo not drawn),5%,0%
CCCOC(=O)c1c(NC(=O)C2c3ccccc3Oc3ccccc32)sc2c1CCCC2,3%,1%
Cc1cccc(NC(=O)CSc2nnc(-c3ccco3)o2)c1,-4%,-14%
CCOC(=O)c1cc(C)n(-c2c(C)n(C)n(-c3ccccc3)c2=O)c1C,-8%,x
CCOc1cc(CNn2cn[nH]c2=S)cc(Cl)c1OCc1ccccc1F,u,-21%
Cc1ccc(C)c(NC(=O)COC(=O)Cn2c(C)csc2=O)c1,-10%,i
COC(=O)C1CCN(S(=O)(=O)c2cc3c4c(c2)C(C)C(=O)N4CCC3)CC1 (stereo not drawn),-15%,-13%
CC[n+]1cc(C)ccc1/C=C/c1ccc(N(C)C)cc1,130%[activator],-6%
COc1ccc(-c2nc(-c3cccnc3)no2)cc1,-8%,-2%
Cc1ccc(NC(=O)c2ccc(CSc3ccccn3)cc2)cc1,-23%,0%
COc1ccc(Cl)cc1C(=O)C1CCCN(Cc2cnc(C)s2)C1 (stereo not drawn),-17%,-11%
Cc1ccc(C(=O)Nc2cccc(C(=O)O)c2)cc1S(=O)(=O)N1CCOCC1,-5%,-12%
Brc1ccc(-c2nnc(-c3ccccc3Br)o2)cc1,-21%,i
O=C(Cn1cc(/C=C\[N+](=O)[O-])c2ccccc21)Nc1ccccc1,17%,14%
Cc1nc2cc(CO)ccc2s1,-4%,x
Cn1cc(S(=O)(=O)Nc2ccc(Oc3ccccc3)cc2)c(=O)n(C)c1=O,-9%,i
COCc1cc(/C=N\NC(=O)c2ccc(Cl)cc2)ccc1OC,1%,-15%
O=C(COc1nncc2ccccc12)Nc1ccc(Br)cc1F,-10%,i

Part of the list above in order of length of the SMILES, high to low:
compound,Vaccinia Venus,VACV mCherry inh
COC(=O)C1CCN(S(=O)(=O)c2cc3c4c(c2)C(C)C(=O)N4CCC3)CC1 (stereo not drawn),-15%,-13%
Cc1ccc(C(=O)Nc2cccc(C(=O)O)c2)cc1S(=O)(=O)N1CCOCC1,-5%,-12%
CCOC(=O)c1cc(C)n(-c2c(C)n(C)n(-c3ccccc3)c2=O)c1C,-8%,x
O=C(Cn1cc(/C=C\[N+](=O)[O-])c2ccccc21)Nc1ccccc1,17%,14%
CCOc1cc(CNn2cn[nH]c2=S)cc(Cl)c1OCc1ccccc1F,u,-21%
COc1ccc(Cl)cc1C(=O)C1CCCN(Cc2cnc(C)s2)C1 (stereo not drawn),-17%,-11%
COCc1cc(/C=N\NC(=O)c2ccc(Cl)cc2)ccc1OC,1%,-15%
Cc1ccc(NC(=O)c2ccc(CSc3ccccn3)cc2)cc1,-23%,0%
CC[n+]1cc(C)ccc1/C=C/c1ccc(N(C)C)cc1,130%[activator],-6%
O=C(COc1nncc2ccccc12)Nc1ccc(Br)cc1F,-10%,i
Brc1ccc(-c2nnc(-c3ccccc3Br)o2)cc1,-21%,i
COc1ccc(-c2nc(-c3cccnc3)no2)cc1,-8%,-2%
Cc1nc2cc(CO)ccc2s1,-4%,x

More records
compound,Vaccinia Venus,VACV mCherry inh
C=CCN(C(=O)OC(C)(C)C)S(=O)(=O)NCc1ccccc1,-9%&-11%,i
CCOc1ccccc1NC(=O)C1CCCN(S(=O)(=O)c2cccc3nsnc23)C1 (stereo not drawn),-7%,-11%
CS(=O)(=O)Cc1cccc(C(=O)NC2CCSc3ccccc32)c1 (stereo not drawn),-7%,-11%
O=C1C2=C(C(c3ccccc3)=NCCN2)C(c2cccc([N+](=O)[O-])c2)N1c1ccccc1 (stereo not drawn),-6%,-14%
Cc1cc(O)c(CN2CCN(c3ccccc3)CC2)cc1C,-10%,x
CCN(CC)CCN(C)c1ccc(/C=C/c2ccnc3ccccc23)cc1,-12%,-10%
CCOC(=O)N1CCN(c2ccc(N3C(=O)CCCC3=O)cc2[N+](=O)[O-])CC1,3%,i
Cc1nnsc1NC(=O)OCc1ccc(C(C)(C)C)cc1,u,x
CC(CCl)OC(C)CCl (stereo not drawn),-17%,-20%
CC(=O)Nc1ccc(N(CC(O)Cn2c3ccccc3c3ccccc32)S(=O)(=O)c2ccc(C)cc2)cc1 (stereo not drawn),u,u
Cc1ccc(C)c(-c2nnc(OCC(=O)Nc3cc(C)on3)c3ccccc23)c1,-12%,i
